# High-throughput results as filed in PubChem.
# MgrA-DNA mod = S. aureus MgrA activity modulators, primary screen, biochemical, S. aureus Newman, fluorescence polarization; 84,000 compounds, 0.13% hits; AID 602314, 2012; inhibition, %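 (about 10 µg/mL by stock and volumes)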; MgrA-DNA binding;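 active means above 50% in either of two replicates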;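 further: 0% = protein plus DNA without compound and 100% = DNA alone without protein; higher means less MgrA bound to DNA so lower polarization; one replicate is shown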
# S aureus helic = inhibitors of S. aureus replicative helicase, primary screen, biochemical, fluorescence unwinding readout; purified S. aureus helicase, fluorescence unwinding assay; about half of the hits fall short of the stated cut; replicative DNA helicase (DnaC/DnaB), Staphylococcus aureus; inhibition, %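 (tested at about 80 µM)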; AID 485395, 2010; 120,000 compounds, 0.05% hits;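 active means both duplicates at 50% or more, or one of them with a favoured structure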;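 further: 0% = mean of negative control wells and 100% = mean of positive control wells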
# Numbers without * were called inactive; i = inactive; . = no result given.
SMILES,MgrA-DNA mod,S aureus helic
COCC(C)N=C1NN=C(c2cc(C)n(-c3cc(C(=O)OC)cc(C(=O)OC)c3)c2C)CS1 (stereo not drawn),.,-4.0
CC(=O)Nc1nnc(SCC(=O)Nc2ccccc2)s1,.,-4.0
CCOC(=O)C1=C(Nc2ccc(OC)cc2)OCC1=O,.,-19.0
O=C(COc1ccc2oc3c(c2c1)CCCC3)NCCNc1ncc(C(F)(F)F)cc1Cl,.,19.0
CC(=O)OC[C@H]1O[C@@H](n2cc(C)c(=O)[nH]c2=O)C[C@@H]1OC(C)=O,3.0,-7.0
CCCNC(=O)NC1CCN(c2ncc(C(F)(F)F)cc2Cl)CC1,0.8,.
CSc1nc2c(c(=O)n1C)SC(C)C2 (stereo not drawn),.,-11.0
CCCCN(C(=O)c1ccccc1)C1CC2CCC(C1)N2C (stereo not drawn),-2.2,-4.0
O=C(/C=C/c1cccs1)NC1CC1,.,-11.0
N#CC(C#N)=C1c2ccccc2-c2c1nc1ccccc1[n+]2[O-],-4.4,10.0
O=C(OCc1nnc(-c2ccccc2)o1)C1c2ccccc2Oc2ccccc21,0.8,-2.0
O=C1c2ccccc2C2=Nc3ccccc3SC12O (stereo not drawn),.,-10.0
Cn1c(-c2ccccc2)c(/C=C2/C(=O)Oc3ccccc3C2=O)c2ccccc21,37.7,2.0
O=C1CC(=O)SC(c2ccccc2)=N1,-1.1,-3.0
O=c1cc(-c2ccccc2)nc2c(n1)NON2,1.1,-13.0
COc1ccc(C2C(C(=O)N3CCCCC3)c3ccccc3C(=O)N2Cc2ccc(F)cc2)cc1 (stereo not drawn),0.1,4.0
N#Cc1ccc(OC(=O)Cn2c(C(F)(F)F)nc3ccccc32)cc1,0.8,.
CNc1ccc2ccccc2c1,.,-86.0
CC(NC(=O)CC12CC3CC(CC(C3)C1)C2)C(=O)O (stereo not drawn),3.1,9.0
COc1ccc(C)cc1C(=O)CCC(=O)O,0.8,3.0
O=c1nc(N2CCCCC2)ccn1-c1nc(-c2ccccc2)oc1-c1ccccc1,.,17.0
N#CC(c1ccccc1)c1ccccn1 (stereo not drawn),-0.2,24.0
Cc1ccc(CSCc2ccc(C(=O)NC3CCCC3)o2)cc1,-2.1,7.0
Cc1ccc(OCC(O)CN2C(=O)NC(C)(C)C2=O)c(Cl)c1 (stereo not drawn),-1.4,3.0
O=c1[nH]c(CSc2ncnc3sccc23)nc2sc3c(c12)CCCC3,.,-11.0
O=C(NCc1cccs1)c1ccccc1NC(=O)C(F)(F)F,-0.5,-2.0
CCN(CC)C(=O)C1=C(C)Nc2nc3ccccc3n2C1c1cc(Br)ccc1OC (stereo not drawn),.,-4.0
O=C1CCCC(O)=C1C=Nc1cccc(Cl)c1Cl,-2.2,.
COc1ccc(OC)c(-c2cc(C(N)=O)on2)c1,8.1,8.0
N#CC(C(N)=O)C(=S)Nc1ccccc1 (stereo not drawn),.,10.0
O=C(O)c1cccc(Nc2nc3ccccc3n3cnnc23)c1,.,-15.0
CSc1c(-c2ccccn2)c(N)nn1C(=O)C1CC1,-2.8,.
CC1(C)CC2CC(C)(CN2C(=O)COC(=O)c2ccccc2)C1 (stereo not drawn),1.4,-21.0
CCOC(=O)N1CCN(C(=O)CN(c2cc(C(F)(F)F)ccc2Cl)S(C)(=O)=O)CC1,0.6,13.0
O=C(NCCC1=CCCCC1)C1COc2ccccc2O1 (stereo not drawn),-2.4,-8.0
C/C(N)=C(/C#N)C(=O)CSc1cccc[n+]1[O-],.,-9.0
CC1CCN(C(=O)COC(=O)c2ccc(OC(F)(F)F)cc2)CC1,-0.9,-6.0
CC(Nc1ccc(-n2cnnn2)cc1)C(=O)Nc1ccc2c(c1)OCCO2 (stereo not drawn),.,-25.0
O=c1[nH]c2ccccc2c(O)c1-c1ccccc1,-0.8,.
CC(NC1CCCCCCC1)C(=O)Nc1ccc(S(N)(=O)=O)cc1 (stereo not drawn),.,10.0
c1ccc(-c2csc3ncnc(NCCN4CCOCC4)c23)cc1,.,2.0
Clc1ccc(-c2noc(-c3cn[nH]c3-c3ccccc3)n2)cc1,-0.2,.
COC(=O)c1sccc1N/N=C(\C#N)S(=O)(=O)c1ccc(Cl)cc1,-2.3,.
CCC(C)NC(=O)CSc1nc2ccsc2c(=O)n1Cc1ccc(OC)cc1 (stereo not drawn),0.5,-1.0
CCOC(=O)NC(=S)c1ccc(OC)cc1,1.9,.
Cc1ccc(C(=O)CCC(=O)N2CCN(C/C=C/c3ccccc3)CC2)cc1,.,4.0
Cc1cccc(-c2cc3nc(C)c(C)c(N4CCC5(CC4)OCCO5)n3n2)c1,-0.4,8.0
O=c1c2ccccc2[nH]c(=S)n1CCCN1CCN(c2ccccc2)CC1,.,31.0
CN(C)S(=O)(=O)c1cccc(C(=O)N2CCN(C(=O)C3CCCO3)CC2)c1 (stereo not drawn),.,-6.0
COc1cccc(N2CCN(CC(=O)c3c(N)n(C)c(=O)n(C)c3=O)CC2)c1,.,-14.0
COC(=O)c1ccc(C2C(Oc3ccccc3)C(=O)N2CCc2ccc(OC)c(OC)c2)cc1 (stereo not drawn),5.2,2.0
Cn1cnnc1SCc1ccc(C(=O)N/N=C/c2cccs2)cc1,.,6.0
N#CCCn1c2ccccc2c2ccccc21,-1.7,.
O=[N+]([O-])c1cc(C(F)(F)F)ccc1Oc1c(Cl)cccc1Cl,-1.4,.
O=C(NCc1ccccc1)c1ccc(CS(=O)c2ccccc2)o1 (stereo not drawn),-2.8,-3.0
CCc1cccc(NC(=O)C2c3ccccc3Oc3ccccc32)c1,0.7,14.0
CC(=O)N1CCN(c2ccc(Oc3nnnn3-c3ccccc3)cc2)CC1,.,-3.0
O=C1c2ccccc2NC(c2cccs2)N1CCCN1CCOCC1 (stereo not drawn),.,-25.0
O=C(O)CCCC(=O)Nc1cc(-c2ccccc2)[nH]n1,0.9,.
COC(=O)c1sccc1S(=O)(=O)N1CCN(c2ncnc3c(C)csc23)CC1,-0.1,.

# Next records follow:
# Under each structure – MgrA-DNA mod	S aureus helic
- CCOC(=O)N1CCN(C2CCCc3c2[nH]c2ccc(C)cc32)CC1 (stereo not drawn)
→ .	7.0
- COC(=O)c1cccnc1SC
→ 0.7	.
- O=C1CC(=O)N(/N=C2\C(=O)Nc3ccccc32)C(=S)C1
→ 6.8	7.0
- CC(OC(=O)c1ccco1)C(=O)Nc1ccc(C(F)(F)F)cc1 (stereo not drawn)
→ .	14.0
- COc1ccc(C(=O)COC(=O)CCc2nc3ccccc3[nH]c2=O)cc1Br
→ -3.6	7.0
- O=C1c2ccccc2C(=O)c2c1ncn2Cc1ccccc1
→ 0.1	11.0
- CCCN1C(=O)CSC1=Nc1ccccc1
→ -1.1	7.0
- COc1ccc(NS(=O)(=O)c2cccc(C(=O)N/N=C(\C)c3ccco3)c2)cc1
→ .	8.0
- CCN1C(=O)CSC1=Nc1cccc(C(=O)O)c1
→ -0.7	9.0
- COC(=O)c1ccccc1N(C)C(=O)c1cccc(S(=O)(=O)N2CCCCC2)c1
→ -0.7	-2.0
- C=CCn1c(-c2ccc(Cl)cc2)cnc1SC(C)C(N)=O (stereo not drawn)
→ .	-14.0
- COc1ccc(NC(=O)C2=C(C)C(=O)OC23CCN(S(C)(=O)=O)CC3)c(OC)c1
→ .	-2.0
- O=C1CCC(C(=O)Nc2ccccc2)N1 (stereo not drawn)
→ -3.3	8.0
- O=C(C1CCN(c2ncnc3sccc23)CC1)N1CCCCCC1
→ .	-7.0
- CCOC(=O)c1cc(NC(=O)N2CCCC2)c(C)nc1C
→ .	-1.0
- CCN1C(=O)/C(=C/c2ccco2)NC1=S
→ 5.2	-9.0
- Cc1cc(C(=O)COC(=O)c2ccc(NC(=O)CC#N)cc2)c(C)n1C1CC1
→ .	-5.0
- Cc1cc(C)c2c(n1)sc1c(N3CCOCC3)ncnc12
→ -4.0	.
- COc1ccc(-c2coc3cc(OC)cc(O)c3/c2=N\N)cc1
→ .	-8.0
- N#Cc1c(N)n(Cc2ccc(Cl)cc2)c2nc3ccccc3nc12
→ .	-13.0
- COc1ccccc1Nc1c2c(nc3ccc(NC(=O)/C=C/c4cccs4)cc13)CCCC2
→ -0.5	6.0
- CCC(C)/C(C)=N/Nc1ccc(Cl)cc1 (stereo not drawn)
→ .	-21.0
- Cc1cc2nc(CSc3nc4sc5c(c4c(=O)n3C)CCCC5)cc(=O)n2o1
→ .	7.0
- N#Cc1ccc(SCCO)c([N+](=O)[O-])c1
→ -1.0	.
- CCC(=O)N(/C=C1\Sc2ccccc2C1=O)c1cccc(C)c1
→ 2.3	.
- O=C(COC(=O)C1=COCCO1)NC1CCCCCCC1
→ .	3.0
- CCN(C(=O)[C@@H]1CCCN1C(=O)c1cccs1)c1nc2cc(Cl)ccc2s1
→ .	-9.0
- O=C(Oc1cccc(C(F)(F)F)c1)c1cc2ccc3ccccc3c2s1
→ 1.9	.
- O=c1c(C=NCc2ccco2)c(CSc2ccc(Cl)cc2)[nH]n1-c1nc2ccccc2s1
→ -3.4	3.0
- O=[N+]([O-])c1ccc2oc(C(O)c3ccc(-c4ccccc4)cc3)cc2c1 (stereo not drawn)
→ -0.3	.
- CCSc1nnc(NC(=O)Cc2n[nH]c(=O)c3ccccc23)s1
→ .	1.0
- O=C(CNC(=O)C1CCCCC1)OCc1cc(=O)n2cc(Br)ccc2n1
→ .	-14.0
- Cc1ccc2cc3c(N)c(-c4nnc(-c5ccccc5)o4)sc3nc2c1
→ 3.3	-7.0
- CCn1c(=O)/c(=C\c2ccc(N(C)C)cc2)s/c1=C(/C#N)C(=O)Nc1ccc(C)cc1
→ .	i
- Cc1ccc(Cn2c(=O)c3ccccc3n3nncc23)cc1
→ .	13.0
- Cc1cc(Br)cc(Br)c1OC(=O)c1ccco1
→ .	8.0
- CC(NC(=O)Cc1nn[nH]n1)c1ccccc1 (stereo not drawn)
→ .	13.0
- CN1CCN(/N=C/c2ccc(OC(F)F)cc2OC(F)F)CC1
→ .	7.0
- Cc1cc(C)c2c(c1)NC(=O)C21NNc2ccccc2O1 (stereo not drawn)
→ .	-25.0
- C/C(=N\NC(=O)CCn1c2c(c3ccccc31)CCCC2)c1ccc(Br)s1
→ .	25.0
- C=C(C)C(=O)N1C(=O)OCC1c1ccccc1 (stereo not drawn)
→ -1.1	-13.0
- O=C(Cc1ccccc1)Nc1nc2ccccc2s1
→ 1.6	1.0
- CCOC(=O)c1c(C)[nH]c(C)c1S(=O)(=O)NC1CCCCCCC1
→ .	11.0
- O=C(Nc1cccc(Cl)c1)Nc1ccc2c(c1)oc1ccccc12
→ 2.0	10.0
- COc1ccc(-c2nc(SCC(=O)C(C#N)c3nc(C)cs3)n[nH]2)cc1 (stereo not drawn)
→ .	-11.0
- O=C(NCCc1ccccc1)C1CCC(=O)N1C1CCCCC1 (stereo not drawn)
→ 2.1	6.0
- CCOC(=O)c1c(-c2ccccc2)csc1NC(=O)c1cc2ccccc2oc1=O
→ 3.2	.
- O=C1c2ccccc2C(O)(Cc2ccccc2)N1c1ccc2c(c1)OCO2 (stereo not drawn)
→ .	-5.0
- CC(=O)N1CCN(S(=O)(=O)c2cccc(C(=O)OCc3cc(Cl)cc4c3OCOC4)c2)CC1
→ .	3.0
- Cc1c(Cl)cnc(NC(=O)COC(=O)/C=C/c2cccn2C)c1Cl
→ .	-2.0
- c1ccc2c(c1)OCC(CSc1nnc3ccccn13)O2 (stereo not drawn)
→ .	14.0
- COc1cc(OC)cc(C(=O)N2CCC(C(=O)NCCc3ccccc3)CC2)c1
→ 1.4	-7.0
- CC(C)(C)c1cc2nc(C(F)(F)F)cc(N3CCN(c4ccc(C(F)(F)F)cn4)CC3)n2n1
→ -1.1	.
- O=C(CSc1nc2ccccc2n1CCc1ccccc1)NC1CC1
→ -0.3	21.0
- CC(=O)N=C(C)CC1(OC(C)=O)C(=O)N(C)c2ccccc21 (stereo not drawn)
→ -0.9	12.0
- CCC(NC(=O)Nc1cc(C)ccc1OC)c1c(-n2cccc2)sc2c1CCN(CC)C2 (stereo not drawn)
→ .	17.0
- COc1ccc(C(=O)c2ccc(OC)cc2OC)c(OC)c1
→ 1.7	2.0
- O=C(Nc1cccc(N2CCCC2)c1)C(F)(F)C(F)F
→ 0.0	-3.0
- O=C1NCCCCC1NCC(O)c1ccccc1 (stereo not drawn)
→ .	-12.0
- CC1CN(Cc2nc(N3CC(C)OC(C)C3)c3c4c(sc3n2)CCCC4)CC(C)O1 (stereo not drawn)
→ .	-5.0

# Further compounds.
# Under each structure – MgrA-DNA mod	S aureus helic
- COc1ccc2c(CNCC(C)c3ccccc3)c(C(=O)O)n(Cc3ccc(F)cc3)c2c1 (stereo not drawn)
→ 5.2	1.0
- Nc1nc2cc(Cl)ccc2n1CCCO
→ 3.0	1.0
- CCn1ncc(Cl)c1C(=O)NCc1ccco1
→ 2.1	1.0
- O=c1oc2c(-c3cccc(Cl)c3)cc(O)cc2s1
→ .	5.0
- Cc1sc2c(c1C)CSC(C(=O)NCCc1ccccc1)=C2
→ -0.7	10.0
- Cn1nccc1NC=C(C#N)C#N
→ .	-24.0
- CCC(C(=O)Nc1ccc2c(c1)OCO2)n1nc(-c2ccc(C)cc2)c2c(c1=O)CCCC2 (stereo not drawn)
→ .	29.0

# Complete entries as entered above.
# COc1ccc2c(CNCC(C)c3ccccc3)c(C(=O)O)n(Cc3ccc(F)cc3)c2c1 (stereo not drawn) in the list: MgrA-DNA mod = 5.2; S aureus helic = 1.0
# Nc1nc2cc(Cl)ccc2n1CCCO in the list: MgrA-DNA mod = 3.0; S aureus helic = 1.0
# CCn1ncc(Cl)c1C(=O)NCc1ccco1 in the list: MgrA-DNA mod = 2.1; S aureus helic = 1.0

# These rows are one share of the data, so the mix of outcomes need not match the whole.
